Bioassay records from PubChem.
NPYLR7 ag: agonists of mosquito NPYLR7 receptor, primary screen, cell-based, Aedes aegypti, calcium fluorescence, mosquito biting behavior; HEK293T NPYLR7/Galpha15, GCaMP6s calcium fluorescence; activation, % at 10 µM; actives 0.15% (n = 270,000); AID 1259423, 2018; in the data active = activation above about 40%;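 note: 0% = vehicle and 100% = reference agonist at the receptor; some compounds past the cut are filed as inactive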
NPYLR7 ag max-min: second read-out of NPYLR7 ag, no call of its own (marks repeat the call); activation, %; measured here: Max-Min RFU normalised activation; some inactives read as strong as hits;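 span of the calcium signal over five minutes; 0% = vehicle and 100% = native peptide agonist; compound fluorescence can raise it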
* marks the source's active call; other numbers are inactive results; & = joins results of further samples. A portion of the library. The share of hits here may be higher or lower than overall.

Values run as follows: NPYLR7 ag | NPYLR7 ag max-min
O=C(CCN1CCCC1=O)NC1CCCc2c1cnn2-c1ccc(F)cc1F (stereo not given)
→ -3 | -3
CS(=O)(=O)N1CCN(C(=O)C2CC(=O)c3ccccc32)CC1 (stereo not given)
→ 0 | 0
CCNC(=O)Cc1cc(-c2ccc(OC)c(OC)c2)on1
→ 2 | 2
CCCOc1ccc(C(=O)NC(CC)c2ccc(C)cc2)cc1 (stereo not given)
→ 4 | 8
CCOC(=O)NN=C(C)c1ccc(Cl)s1
→ -3 | -2
CCCS(=O)(=O)N1CCN(c2nc(-c3ccccc3)nc(COC)c2Cc2cccc(Cl)c2)CC1
→ 21 | 28
CCC(C)N(Cc1ccc(N(CC)CC)cc1OS(C)(=O)=O)C(=O)COC (stereo not given)
→ -2 | 13
Cc1cccc(C)c1NC(=O)C(C)Nc1ccc(OCC(N)=O)cc1 (stereo not given)
→ -1 | -2
Cc1noc(C)c1S(=O)(=O)N1CCCN(C(=O)c2cccc(Cl)c2Cl)CC1
→ 0 | 26
O=C(Nn1cnc2c(cnn2-c2ccccc2)c1=O)c1ccc([N+](=O)[O-])cc1
→ 2 | 0
CCNC(=O)CCCC(=O)NC(C)(C)Cc1ccccc1Cl
→ -3 | -9
Cc1ccc(-n2ncc3c(C)nn(CC(=O)Nc4cc(C)on4)c(=O)c32)c(C)c1
→ 5 | 2
COc1cccc(-c2cc(CC(=O)NC3CCCC3)no2)c1
→ 11 | 13
O=C(COc1cc(Cl)ccc1Cl)N1CCC(c2nc3ccccc3s2)CC1
→ 0 | -3
COc1ccc(CC(=O)NCc2ccc(-n3ccnc3C)cc2)cc1
→ -8 | -11
CN(Cc1ccccn1)C(=O)c1ccc(Br)cc1O
→ 4 | 0
COc1ccc2c(c1)C(CN1CCN(c3ccc(C(=O)O)cc3)CC1)=CC(C)(C)O2
→ 0 | 9
Cc1cc(C(N)=O)ccc1NC(=O)c1n[nH]c(C2CC2)c1Br
→ 4 | 14
Cc1cccc(C2c3cccn3CCCN2Cc2cccc(Oc3ccccc3)c2)c1 (stereo not given)
→ 18 | 17
O=C(Cc1csc2nc(-c3ccccc3)cn12)N1CCCc2ccccc21
→ 0 | -3
COc1ccc(CNC(=O)CC[C@]23CC[C@](C)(O)C[C@H]2C(C)(C)C[C@@H]3NC(=O)c2ccc(N(C)C)cc2)cc1
→ -7 | -15
CCOc1ccc(N=Nc2c(C)n[nH]c2C)cc1
→ 2 | 1
Cc1ccc(-n2c(-c3cccc(C)c3)n[nH]c2=S)cc1
→ -5 | -2
CCCCN(CC(=O)N1c2ccccc2-n2cccc2C1c1ccc(C)cc1)C(=O)c1ccc(OC)cc1 (stereo not given)
→ 15 | 14
CCCC(=O)OCC(O)CN(Cc1ccc(F)cc1)Cc1ccc(C)s1 (stereo not given)
→ 15 | 10
Cn1c(CC2CCNCC2)nnc1SCCN1CCOCC1
→ -3 | -5
Cc1c(C(=O)N2CCOCC2)nnn1-c1ccc2noc(-c3ccc(Cl)cc3)c2c1
→ 5 | 3
Cc1cc(N2CCN(c3ccc(O)cc3)CC2)nc(-n2nc(C)cc2C)n1
→ -8 | -6
Cc1c(C(=O)NC2CCCCCCC2)sc2ncnc(NCC3CCCO3)c12 (stereo not given)
→ 28 | 13
O=C(c1ccc([N+](=O)[O-])cc1)N1CCCC(OCc2cccc(F)c2F)C1 (stereo not given)
→ -3 | 3

The results go on.
Values run as follows: NPYLR7 ag | NPYLR7 ag max-min
NNc1nc(N2CCOCC2)nc(N2CCOCC2)n1
→ -7 | -13
O=C(CN(C(=O)c1ccccc1)C1CC1)N(CCc1c[nH]c2ccccc12)Cc1ccc(C(F)(F)F)cc1
→ 7 | 19
COc1ccc(NC(=O)CCN(CCCN2CCOCC2)c2nc(-c3ccccc3Cl)nc3ccccc23)cc1
→ -3 | -1
CCc1[nH]c2ccc(CNC(=O)CSc3nc(C)cc(=O)[nH]3)cc2c1C
→ 2 | 0
CC(=O)Nc1ccc(NC(=O)CC(C(=O)O)N2CCN(C)CC2)cc1 (stereo not given)
→ -7 | -6
COc1cccc(Cc2nsc(N3CCCN(C(=O)c4c(OC)cccc4OC)CC3)n2)c1
→ 4 | 15
CCOC(=O)Cc1c(C)nc2ncnn2c1N1CCN(C(=O)OCc2ccccc2)CC1
→ 16 | 14
Cc1ccc(-c2csc3ncn(Cc4nc(-c5ccccc5)no4)c(=O)c23)cc1
→ -18 | -19
CC1=NN(Cc2ccc(F)cc2)c2nc3c(c(=O)n(Cc4ccccc4)c(=O)n3C)n2C1
→ 8 | 12
Cc1ccc(C(C)(C)CN(C)CCS(C)(=O)=O)cc1
→ 2 | -2
CCCC(O)CN1CCC(=O)N(CC2CC2)Cc2cc(OC)ccc21 (stereo not given)
→ -11 | -3
C=CCSc1nnc(C)n2c1cc1sccc12
→ 8 | 5
Clc1cccc(-c2nc3ccccn3c2NC2CCCCC2)c1
→ -2 | 2
CC(C)c1nc(SCC(=O)N(CC(F)(F)F)C(C)C2CC2)n[nH]1 (stereo not given)
→ 1 | 0
CC1=NN(c2ccc(Cl)c(Cl)c2)C(=O)/C1=C\c1cccc(I)c1
→ -7 | 1
Brc1ccc(-c2nc3n(n2)Cc2ccccc2-3)cc1
→ -1 | 1
CCC(C)NC(=O)C(NC(=O)c1ccc2c(c1)OCO2)C1CCN(C(=O)c2ccco2)CC1 (stereo not given)
→ 0 | 3
Cc1ccc(C(=O)N2CCCC2)cc1S(=O)(=O)Nc1ccc(F)cc1
→ 3 | 5
CCCc1ccc(C(=O)N(C)Cc2ncc[nH]2)cc1
→ 0 | 14
Cc1ccc(/C=C/c2nc3sc4c(c3c(=O)[nH]2)CCC4)cc1
→ -2 | -3
O=C(C1CCCN1)N(Cc1ccccc1)Cc1nccs1 (stereo not given)
→ -4 | -5
O=C(c1ccc(CSCCc2ccccc2)cc1)N1C2CCC1CC(Oc1ccc3c(c1)OCO3)C2 (stereo not given)
→ 9 | -1
Cc1ccc(/C=C/C(=O)N2CSCC2C(=O)Nc2ccc(C#N)cc2)s1 (stereo not given)
→ 2 | 2
Cc1cc(OCc2nc(C(=O)NCc3ccc(F)cc3)cs2)ccc1Cl
→ 21 | 18
Fc1ccc(-c2csc(=NCC3CCCO3)n2N=Cc2ccc3c(c2)OCO3)cc1 (stereo not given)
→ 1 | 8
CCOC(=O)C1CCCN(C(=O)c2coc(CN(CCc3c[nH]c4ccccc34)Cc3cccc(Oc4ccccc4)c3)n2)C1 (stereo not given)
→ 10 | 11
CCOC(=O)C1CCN(C(=O)c2coc(CN(Cc3ccc(F)cc3)Cc3ccc(OC)cc3)n2)CC1
→ 20 | 15
O=C1OC(c2cccc(F)c2)=NC1=Cc1csc(-c2ccccc2)n1
→ 2 | -1
CCCn1ncc(C(=O)N2CCCC2c2nc(-c3ccncc3)no2)c1C (stereo not given)
→ 1 | 0
CCCOC(C)CNC1CCN(C(C)=O)CC1 (stereo not given)
→ 2 | 0

Later entries
Values run as follows: NPYLR7 ag | NPYLR7 ag max-min
COc1ccccc1C(=O)N1CCC(C(NC(=O)c2cccc(C)c2)C(=O)NCc2ccco2)CC1 (stereo not given)
→ -3 | 3
CCn1cc(CNC(=O)c2ccc3oc(-c4ccc(C(F)(F)F)cc4)nc3c2)cn1
→ 3 | 2
O=C(C1CC=CCC1C(=O)N1CCc2ccccc2C1)N1CCc2ccccc2C1 (stereo not given)
→ -7 | -18
N#Cc1ccc(Nc2ccc(Cl)cc2)cc1
→ 9 | 6
NC(=O)CC(NC(=O)Cc1ccc(C(F)(F)F)cc1)C1CC1 (stereo not given)
→ 3 | 0
Cn1c2c(c3ccccc31)C[C@@H]1C[C@@H]2[C@@H](O)CN1C(=O)OCc1ccccc1
→ 27 | 36
C/C=C(/OC)C(=O)N1CCC(n2c(Cc3ccccc3)nc3ccccc32)CC1
→ -6 | -10
C=CCOC(=O)C1C(C)=Nc2nc(SCCCC)[nH]c(=O)c2C1c1ccc(OC)cc1 (stereo not given)
→ 1 | -2
Cc1ccc(NC(=O)N(Cc2c(-c3ccccc3)noc2N2CCOCC2)C(C)C)cc1
→ -3 | -2
COc1cccc(Cn2c(=O)c(C(=O)NCc3ccncc3)nn(-c3ccc(C)c(C)c3)c2=O)c1
→ 20 | 26
CCCCCn1cc(C2CCN(C(=O)C3CCCC3)CC2)c2ccccc21
→ 26 | 13
CCCCN(C)C(=O)C1=C(C)C(=O)OC12CCC(C)CC2 (stereo not given)
→ 2 | 1
C=CC(C)(O)CN(Cc1ccccc1)Cc1nc2sc3c(c2c(=O)[nH]1)CCCCC3 (stereo not given)
→ 13 | 16
CCOC(=O)N1CCN(C(=O)c2cc(-c3ccc(F)cc3)nn2-c2ccc(Cl)cc2)CC1
→ -4 | -4
COCCOc1nc(-c2ccco2)n(-c2cccc(NC(=O)Nc3cccc(Cl)c3)c2)n1
→ 21 | 36
COc1cccc(NC(=O)CCC2CCN(C(=O)C(C)Cn3cccn3)CC2)c1 (stereo not given)
→ 20 | 10
NC(=O)CSc1nnc(Cn2ccc(=O)[nH]c2=O)o1
→ -7 | -1
COC(CNC(=O)c1c(O)nc2ccccn2c1=O)OC
→ -1 | 16
Cc1csc(=O)n1CC(=O)NC(CCCc1ccccc1)c1ccccc1 (stereo not given)
→ 6 | 4
O=C(COc1ccc(F)cc1)N1CCOC(Cc2ccccc2)C1 (stereo not given)
→ -4 | -7
COc1ccc(N2CCn3c2nnc(C(=O)NCCCn2ccnc2)c3=O)cc1
→ 4 | 2
O=c1c2ccc(Cl)cc2ncn1Cc1nc(-c2ccccc2Cl)no1
→ 2 | -2
COc1ccc(C(C)NC(=O)NCC2Cc3ccccc3O2)c(OC)c1 (stereo not given)
→ 21 | 11
Cc1cc(S(=O)(=O)NCCOc2ccc3nnc(C)n3n2)ccc1F
→ 7 | 14
CCc1nn(C)c(Cl)c1/C=C/c1ncc(C(=O)O)c(C(C)C)n1
→ -5&-2 | -6&-2
CC1CN(Cc2nc3c(c(=O)n(C)c(=O)n3C)n2Cc2c(F)cccc2Cl)CC(C)O1 (stereo not given)
→ 4 | 0
CCCCCCCC/C=C\CCCCCCCC(=O)NCCc1ccc(O)c(O)c1
→ 0 | -15
O=C1CON(c2ccc(Cl)c(Cl)c2)C(=O)N1
→ 4 | 5
CCOC(=O)c1ccc(N=c2oc3c(OCC)cccc3cc2-c2nc3ccccc3[nH]2)cc1
→ 7 | 4
O=C(Cc1ccncc1)N(Cc1ccc(F)cc1)CC1CCCO1 (stereo not given)
→ -3 | -7

Single entries from above.
`CC1CN(Cc2nc3c(c(=O)n(C)c(=O)n3C)n2Cc2c(F)cccc2Cl)CC(C)O1` (stereo not given) | NPYLR7 ag max-min = 0
`O=C1CON(c2ccc(Cl)c(Cl)c2)C(=O)N1` | NPYLR7 ag = 4

Continued:
Values run as follows: NPYLR7 ag | NPYLR7 ag max-min
CC(=O)N1c2ccccc2N2C(c3c(C)c(C)cc(C)c3C)=NON12
→ -6 | -6
Cc1cc2ncccc2nc1N
→ -2 | 3
Cc1cc(C)c(C)c(S(=O)(=O)N2CCn3cccc3C2C)c1C (stereo not given)
→ 4 | 1
COc1ccc(C2c3ccsc3CCN2CC(=O)N2CCN(C(=O)Nc3cccc(C(F)(F)F)c3)C(C)C2)cc1 (stereo not given)
→ 6 | -2
Cc1cccc(-c2nnc(SCC(=O)N3CCOCC3)n2-c2ccccc2)c1
→ 8 | 13
COCCN1N=C(C)C(C)n2c1nc1c2c(=O)n(CCC(C)C)c(=O)n1C (stereo not given)
→ 12 | 5
C/C(=N/OCC(=O)N=Nc1c(O)n(CN2CCCC2)c2ccc(Br)cc12)c1ccccc1
→ 18 | 10
CC(NS(=O)(=O)c1ccc(N2CCCC2=O)cc1)c1ccc(F)cc1F (stereo not given)
→ -1 | -2
O=C(NCC1CCN(c2nc(Cc3ccc(Cl)cc3)ns2)CC1)c1cc(C(F)(F)F)cc(C(F)(F)F)c1
→ 15 | 14
COC(=O)c1sc(N)c(C(=O)OC)c1CSc1nnc(N)s1
→ 0 | 19
Cc1ccc(-c2nc(C#N)c(NCCN3CCCCC3)o2)cc1
→ -10 | -13
COc1cccc(C(=O)Nc2ccc(C)cc2-c2ccccc2CO)c1
→ 1 | 1
COc1cccc(CNC(=O)c2cn(C)c3c(=O)n(-c4ccccc4)c(=O)[nH]c23)c1
→ 2 | -1
CCN(CC)CCN1C(=O)c2ccccc2NC1c1ccc(N(C)C)cc1 (stereo not given)
→ -6 | -14
CC1CN(c2cc(Oc3ccc(Cl)cc3)ncn2)CCN1Cc1ccc(N(C)C)cc1 (stereo not given)
→ 5 | 6
CCOC(=O)c1cc(-c2ccc(N3CCN(C(=O)c4cc(C)on4)CC3)cc2)n(-c2ccc(F)cc2)n1
→ 26 | 18
O=S(=O)(c1ccccc1Cl)N1CCN(CC(OCc2c(F)cccc2F)c2ccc(Cl)cc2)CC1 (stereo not given)
→ 25 | 11
Cc1nn(CC(=O)c2ccc(Cl)cc2)c(C)[n+]1N
→ -5 | -5
COc1cccc(Nc2nc(-c3[nH]c(C)c(C(C)=O)c3C)cs2)c1
→ 4 | 4
COCCNCc1ccccc1OS(=O)(=O)c1ccc(OC)cc1
→ 30 | 29
CCCCCCn1c(SCCCO)nc2c1c(=O)[nH]c(=O)n2C
→ 9 | 4

Reformatted with bars between the fields: 3 of the compounds above
smiles | NPYLR7 ag | NPYLR7 ag max-min
Brc1ccc(-c2nc3n(n2)Cc2ccccc2-3)cc1 | -1 | 1
COC(CNC(=O)c1c(O)nc2ccccn2c1=O)OC | -1 | 16
C/C=C(/OC)C(=O)N1CCC(n2c(Cc3ccccc3)nc3ccccc32)CC1 | -6 | -10

Reprinted at random: 2 records from the list, in no set order.
Values run as follows: NPYLR7 ag | NPYLR7 ag max-min
O=C(Cc1ccncc1)N(Cc1ccc(F)cc1)CC1CCCO1 (stereo not given)
→ -3 | -7
C=CCSc1nnc(C)n2c1cc1sccc12
→ 8 | 5
